# From PubChem BioAssay
# TsaE inh – qHTS Assay for Inhibitors of YjeE. tRNA threonylcarbamoyladenosine biosynthesis protein TsaE (Escherichia coli (strain …. purified YjeE, fluorescence polarisation of a bound ADP probe. Potency, µM. hit rate 0.05% among 71,000. AID 605, 2007; active = well fitted falling curve; inconclusive = weaker or top-dose-only fall, or a rising curve; inactive = flat or poorly fitted curve;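 note: top concentration of the series not given in the record; excess ADP was the control for the full effect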
#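 Purified YjeE (10 uM) with BODIPY Texas Red-labeled ADP probe (2 uM); compounds pin-transferred, 15 min at room temperature. Binding inhibition read as decreased fluorescence polarization; ADP titration as control.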
# Bst PK mod – Pyruvate Kinase; AID 361, 2006; hit rate 1.2% among 51,000; Potency, µM; partly purified Bacillus stearothermophilus pyruvate kinase, luminescence ATP production; ribose 5-phosphate activator present at AC10; in the data active means potency below about 11 µM; inconclusive means mostly about 12 µM to 25 µM; inactive means weaker than that;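 the screen sought inhibitors and activators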;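 note: potency is the fitted concentration of half-maximal effect; scaled between full activation by ribose 5 phosphate and full inhibition by luteolin; about four in five hits inhibit and the cells do not say which; series up to 57 µM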
# The depositor's hits bear a star; i = inactive; ? = inconclusive; . = not tested or not shown.
TsaE inh	Bst PK mod	canonical_smiles
.	>25.6	Cc1cccn2c(=O)c(/C=C(\C#N)S(=O)(=O)c3ccccc3)c(N3CCN(C)CC3)nc12
i	>57	CC(C)n1c(SC2CCOC2=O)nc2ccccc21 (centres undefined)
i	>57	CCc1nc(OCc2ccco2)c2sc3nc4c(cc3c2n1)COC(C)(C)C4
i	.	CCOC(=O)c1c(C2CCN(C(=O)OCC)CC2)nc2ccccn12
i	>57	O=C(NC1CCCCCCC1)C1CCN(c2nc3ccccc3o2)CC1
i	.	COc1ccc(NC(=O)NCCCN2CCCC2=O)cc1
i	>57	Cn1cc(C(=O)N2CCN(C(=O)c3ccco3)CC2)c2c3ccccc3n(C)c2c1=O
i	>57	COc1ccc(Cn2nnnc2CN2CCc3ccccc32)cc1
i	>57	C=CCN(c1ccc(C(=O)N2CCN(c3ccc(F)cc3)CC2)cc1)S(C)(=O)=O
i	>57	COc1cc(-c2c(C#N)c(=O)[nH]c3c2c(C)nn3-c2ccccc2)ccc1O
i	.	COc1ccc(C2NC(=O)c3n[nH]c(C)c32)c(OC)c1 (centres undefined)
i	>57	COc1ccc(N(CC(=O)O)S(C)(=O)=O)cc1OC
i	>57	O=C(Nc1ccc(Cl)cc1)c1cc2nc(-c3ccco3)cc(C(F)(F)F)n2n1
i	.	Cc1nnc(SCC(=O)Nc2nsc(-c3ccccc3)n2)s1
i	>57	O=c1[nH]cnc2c1N1CCC2CC1
i	>57	Cc1nn(C)c(C)c1NC(=O)c1ccnn1C
i	>57	CCc1nnc2sc(-c3ccc(NC(=O)c4ccc5c(c4)OCCO5)cc3)nn12
i	>57	CCCCn1nc(C(=O)O)ccc1=O
i	.	CCC/C=C(\CCC)C(NS(=O)(=O)c1ccc(C(F)(F)F)cc1)c1ccc(C(=O)OC)cc1 (centres undefined)
i	>57	CCCS(=O)(=O)N1CCN(C(=O)c2cccs2)CC1
i	>57	O=C(Cn1nnc(-c2cccc(C(F)(F)F)c2)n1)N1CCOCC1
i	>57	O=C(CCCc1nc(-c2ccccc2Cl)no1)NC1CCCCC1
i	.	COC(=O)[C@@]1(Cc2ccc(F)cc2)[C@H]2c3cc(C(=O)N4CCCC4)n(CCO)c3C[C@H]2CN1C(=O)c1ccccc1
i	>11.4	COc1ccc(S(=O)(=O)N(CC(=O)O)c2ccccc2)cc1
i	>57	Cc1ccc(C)c(NC(=O)Cn2nc(C)c3ccccc3c2=O)c1
i	.	Cc1nc(SCC(=O)c2ccc(F)cc2)n[nH]1
i	>57	CCCOc1cccc(C2/C(=C(/O)c3ccc(OC)cc3)C(=O)C(=O)N2CCN(C)C)c1 (centres undefined)
i	>57	O=C(O)CNC(=O)CC12CC3CC(CC(C3)C1)C2
i	>57	Cc1cccc(C)c1OCC(=O)NCc1nnc(SCC(=O)NC2CCCCC2)n1C
i	.	CC(=O)c1c(OC(=O)c2ccco2)c2ccccc2n1C
i	>57	CCOC(=O)c1ccc(COC(=O)c2ccc(-c3nnc(-c4ccccc4)o3)cc2)o1
i	.	COc1ccc(-c2nc3cnc(Nc4ccccc4)nc3n(CCC#N)c2=O)cc1
i	>57	O=C(Nc1cnn(Cc2ccc(F)cc2)c1)c1cc2nc(-c3ccco3)cc(C(F)(F)F)n2n1
i	.	O=C(O)c1cc(=O)[nH]c(SCc2ccccc2)n1
i	.	CCCP(=O)(CC(=O)O)c1ccccc1 (centres undefined)
i	>57	C=CCn1c(COc2cccc3cccnc23)nnc1SCC(=O)OC
i	.	CN(C)Cc1ccccc1-c1cc(N(C)Cc2ccco2)ncn1
i	>57	N#Cc1c(NCc2ccccc2)ccnc1NCc1cccnc1
i	>57	O=C(Cn1c(CC(=O)N2CCOCC2)nc2ccccc21)Nc1ccc2c(c1)OC(F)(F)O2
i	.	CC1CCCN(C(=O)CNC(=O)Cn2ccc3ccccc3c2=O)C1 (centres undefined)
i	>57	CCOC(=O)CSc1n[nH]c(-c2cccnc2)n1
i	.	CCCC/C=C/C(NC(=O)c1ccco1)c1ccccc1 (centres undefined)
i	>57	O=C(C1CC1)N1CCc2cc(Br)cc(S(=O)(=O)NCc3ccco3)c21
i	>57	COc1cccc(N(CC(=O)N2CCN(C)CC2)S(=O)(=O)c2ccccc2)c1
i	>57	O=C(O)CCNS(=O)(=O)c1ccccc1
i	>57	Cc1ccc(-c2nnc(N3CCN(C(=O)CN4CCOCC4)CC3)c3ccccc23)cc1
i	>57	Cc1ccccc1S(=O)(=O)Cc1ccc(C(=O)N2CCN(c3ncccn3)CC2)o1
i	>57	COc1ccccc1CNC(=O)N[C@@H](Cc1ccccc1)C(=O)O
i	>57	FC(F)(F)c1nnc2sc(-c3ccco3)nn12
i	.	OCCNCCCCOc1ccccc1F
i	>57	O=C(CCn1c(=O)sc2ccccc21)Nc1ccon1
i	>57	O=C(c1cc2nc(-c3ccco3)cc(C(F)(F)F)n2n1)N1CCN(c2ccccn2)CC1
i	>57	CC1=C(C(=O)Nc2ccccc2)C(c2cccs2)C(C#N)=C(SCC#N)N1 (centres undefined)
.	>25.6	O=C(NCCOCCOCCNC(=O)c1cccnc1)c1cccnc1
i	>57	O=C(NCC(=O)N1CCCC1)c1cccs1
i	.	O=C1C(=O)c2ccccc2C(O)=C1C(C1=C(O)c2ccccc2C(=O)C1=O)c1ccc(Cl)cc1
i	>57	O=C(CSc1nnc(Cc2ccccc2)n1-c1ccc(F)cc1)N1CCOCC1
i	.	Fc1ccc(Nc2nc(Oc3ccc4c(c3)OCO4)nc(N3CCOCC3)n2)c(F)c1
i	>57	O=C(CCNC(=O)Cn1ccc2ccccc2c1=O)NCCCN1CCN(c2ccc(F)cc2)CC1
i	i	COc1ccccc1N1CCN(C(=O)c2oc3ccccc3c2C)CC1

# Filtered by structure: the compounds so far containing a thiophene ring, fused or not.
TsaE inh	Bst PK mod	canonical_smiles
i	>57	CCc1nc(OCc2ccco2)c2sc3nc4c(cc3c2n1)COC(C)(C)C4
i	>57	CCCS(=O)(=O)N1CCN(C(=O)c2cccs2)CC1
i	>57	CC1=C(C(=O)Nc2ccccc2)C(c2cccs2)C(C#N)=C(SCC#N)N1 (centres undefined)
i	>57	O=C(NCC(=O)N1CCCC1)c1cccs1

# Compounds shown so far that have two or more sulfur atoms (3):
TsaE inh	Bst PK mod	canonical_smiles
i	.	Cc1nnc(SCC(=O)Nc2nsc(-c3ccccc3)n2)s1
i	>57	CCCS(=O)(=O)N1CCN(C(=O)c2cccs2)CC1
i	>57	CC1=C(C(=O)Nc2ccccc2)C(c2cccs2)C(C#N)=C(SCC#N)N1 (centres undefined)

# (list continues)
TsaE inh	Bst PK mod	canonical_smiles
i	>57	CCc1nn(CC(=O)NCCN2CCN(C)CC2)c(=O)c2cc3occc3n12
i	.	CCN(CC)[C@@H](C)C(=O)N1c2ccccc2Sc2ccccc21
i	.	CCC/C=C(\CCC)C(NC(=O)c1cccs1)c1ccc(C(F)(F)F)cc1 (centres undefined)
i	>57	O=C(CN(CCCN1CCOCC1)C(=O)Cn1nnc(-c2ccc(F)cc2)n1)NC1CCCCC1
i	>57	O=C1CN(C(=O)CSc2nnnn2-c2ccc(Cl)cc2)c2ccccc2N1
i	>57	C=CCn1c(SCC(=O)Nc2ccc3c(c2)OCCO3)nnc1-c1ccco1
i	.	CC(C)NC(=O)N1CCCC2(CCN(S(=O)(=O)c3ccccc3)CC2)C1
i	>57	O=S(=O)(c1ccc(N2CCCC2)cc1)C(F)(F)F
i	>57	O=C(CN1CCC(n2nnc3cc(C(F)(F)F)ccc32)CC1)N1CCc2ccccc21
i	>57	O=C(Cn1nc(-c2ccccc2)ccc1=O)NCC1COCCO1 (centres undefined)
i	.	Oc1ccc2cc(SSc3ccc4cc(O)ccc4c3)ccc2c1
i	>57	Cn1c(CN2CCOCC2)nnc1SCC(=O)Nc1ccc2c(c1)OCCO2
i	.	Cc1nc(NC2CCCCC2)c2nc(-c3ccccc3)n(CC3CCN(C)CC3)c2n1
i	>57	COC(=O)C1=C(C(=O)c2ccc(C)cc2)C(c2ccc(OC)c(OC)c2)n2nnnc2N1 (centres undefined)
i	.	CN(C)Cc1ccccc1-c1nc(NC2CC2)c2ccccc2n1
i	>57	Cn1cccc1C(=O)c1ccc(Cl)cc1Cl
i	>57	O=C(Nc1ccccc1C(=O)N1CCCC1)c1cccc(S(=O)(=O)N2CCCCC2)c1
i	>57	O=S(=O)(Cc1ccccc1)N1CCN(C2Cc3ccccc3C2)CC1
i	>57	COc1cccc(NC(=O)C2CCCN2C(=O)Nc2ccccc2F)c1 (centres undefined)
i	.	CC1(C)S[C@@H]2[C@H](NC(=O)[C@@H](NC(=O)N3CCNC3=O)c3ccccc3)C(=O)N2[C@H]1C(=O)O

# Overlap with the part before: three compounds, then new ones.
TsaE inh	Bst PK mod	canonical_smiles
i	>57	O=S(=O)(Cc1ccccc1)N1CCN(C2Cc3ccccc3C2)CC1
i	>57	COc1cccc(NC(=O)C2CCCN2C(=O)Nc2ccccc2F)c1 (centres undefined)
i	.	CC1(C)S[C@@H]2[C@H](NC(=O)[C@@H](NC(=O)N3CCNC3=O)c3ccccc3)C(=O)N2[C@H]1C(=O)O
i	>57	CC(=O)C1C(c2cn(-c3ccccc3)nc2-c2cccs2)NC(=O)NC1(O)C(F)(F)F (centres undefined)
i	>57	O=C(Nc1ccc(Cl)c(Cl)c1)OCc1cccnc1
i	.	BrC(c1cccc2ccccc12)c1cccc2ccccc12
i	.	COc1ccccc1CNc1cc(-c2ccccc2C(F)(F)F)ncn1
i	.	CCOCCCNC(=O)c1cc2c(=O)n3cccc(C)c3nc2n1C
i	?	Cc1ccc2cc3cc(C(=O)NCCCN4CCc5ccccc5C4)oc3nc2c1
i	>57	O=C(c1ccco1)N1CCN(Cc2nnnn2CCc2ccccc2)CC1
i	>57	N#CC1=C(N)n2c(s/c(=C\c3ccco3)c2=O)=C(C#N)C1c1ccco1 (centres undefined)
i	>57	COC(=O)C1=C(C)NC(=O)NC1c1ccc(OCC(=O)N2CCCCC2)cc1 (centres undefined)
i	.	CC(C)Cc1cc(C(=O)NCCc2ccccc2)no1
i	>57	CC1CN(C(=O)c2cc3c(s2)CCC3)CC(C)O1 (centres undefined)
i	.	COc1ccc(CNc2nc(-c3cccc(C#N)c3)nc3ccccc23)c(OC)c1
i	.	CCCC/C=C/C(NC(=O)c1ccc(C(=O)OC)cc1)c1ccccc1 (centres undefined)
i	>57	CC(C)CC(NC(=O)C1CCCCC1)C(=O)NCc1ccccn1 (centres undefined)
i	>57	Cn1nc(C(=O)NCc2ccc(F)cc2)c2ccccc2c1=O
i	>57	CC(C)(C)OC(=O)NCCCC(CCCNC(=O)OC(C)(C)C)C(=O)O
.	>25.6	O=C1CCCN1c1ccc(S(=O)(=O)NCc2ccco2)cc1
i	>57	COc1cc(C)nc(N(Cc2ccccc2)S(=O)(=O)c2ccccc2)n1
i	.	O=C1CC(N(O)c2ccccc2)C(=O)N1Cc1ccccc1 (centres undefined)
i	>57	CC(=O)Nc1cccc(Cn2cccn2)c1
i	>57	CCCn1c(SCc2ccc(Cl)cc2)nc2c1c(=O)[nH]c(=O)n2C
i	.	CN(CCC(=O)O)S(=O)(=O)c1ccccc1
i	>57	OC(CNCC1CCCO1)Cn1c2ccccc2c2ccccc21 (centres undefined)
i	>57	COc1ccc(OC)c(C(O)c2nc3ccccc3n2C(C)C)c1 (centres undefined)
i	>57	CCOC(=O)C1CCN(S(=O)(=O)c2ccc(NC(=O)OC)cc2)CC1
i	.	CS(=O)(=O)Nc1cccc(-c2nc(-n3ccnc3)c3ccccc3n2)c1
i	>57	CCOC(=O)Nc1cccc(Nc2ccccc2)c1
.	>25.6	CC(=O)Nc1c(I)c(NC(C)=O)c(I)c(C(=O)O)c1I
i	>57	CS(=O)(=O)N1CCN(C2CCN(Cc3ccccc3)CC2)CC1
i	>57	CC(CN1CCN(C)CC1)OC(=O)c1ccccc1Cl (centres undefined)
i	.	CCOC(=O)Cc1nnc(NC(=O)C(CC)Sc2nncn2C)s1 (centres undefined)
i	>57	O=C(O)[C@H](Cc1ccccc1)NC(=O)N1CCOCC1
i	>57	O=C(CN1CCCCC1)Nc1cc(Cl)ccc1Cl
i	.	CCC(C)NC(=O)C(Cc1ccccc1)n1cccc1 (centres undefined)
i	>57	CCOc1cc2[nH]c(=O)n(CCCCC(=O)NCc3ccco3)c(=O)c2cc1OCC
i	>57	CC1CCCCN1C(=O)CSc1nc2ccccc2n1CC(=O)N1CCc2ccccc21 (centres undefined)
i	>57	Cc1ccc(-c2noc(CCC(=O)NCCc3ccccc3Cl)n2)cc1
i	>57	COc1ccc(-c2noc(CCC(=O)Nc3cccc(C)c3)n2)cc1
i	>57	COc1ccccc1NC(=O)CN1C(=O)C2(OCCCO2)c2ccccc21
i	?	CC1Cc2ccccc2N1C(=O)CCNS(=O)(=O)c1cccc2nsnc12 (centres undefined)
i	.	O=C1CC(N2CCN(C3CCc4ccccc4C3)CC2)C(=O)N1c1ccccc1 (centres undefined)
i	.	O=C(NCCN1CCC(Cc2ccccc2)CC1)C1CCCN(S(=O)(=O)c2cnc[nH]2)C1 (centres undefined)
i	>57	COCCN(CC(=O)NCc1ccc(F)cc1)C(=O)CCC(=O)Nc1nccs1
i	.	COc1ccccc1NC(=O)N(Cc1ccco1)Cc1cc2c(C)ccc(C)c2[nH]c1=O
i	>57	Cc1cc(C(C)(C)C)cc(C)c1COC(=O)C1CCC(=O)N1 (centres undefined)
i	>57	Nc1nc(-c2ccco2)nc(N2CCCCC2)n1

# This is a subset; the hit share may differ from the screen's.
